From PubChem
TAAR1 ag: human TAAR1 agonism | Q96RJ0 | CHO RD-HGA16 TAAR1, Fluo-8 calcium fluorescence; vehicle wells 0%, saturating PEA agonist 100% | activation, % at 3 µM | hit rate 0.99% among 360,000 | AID 624467;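 active means activation above the mean activation of all test compounds in the run plus 3 SD, cut at about 38% in these data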
Target sequence (Q96RJ0 whole entry, looked up): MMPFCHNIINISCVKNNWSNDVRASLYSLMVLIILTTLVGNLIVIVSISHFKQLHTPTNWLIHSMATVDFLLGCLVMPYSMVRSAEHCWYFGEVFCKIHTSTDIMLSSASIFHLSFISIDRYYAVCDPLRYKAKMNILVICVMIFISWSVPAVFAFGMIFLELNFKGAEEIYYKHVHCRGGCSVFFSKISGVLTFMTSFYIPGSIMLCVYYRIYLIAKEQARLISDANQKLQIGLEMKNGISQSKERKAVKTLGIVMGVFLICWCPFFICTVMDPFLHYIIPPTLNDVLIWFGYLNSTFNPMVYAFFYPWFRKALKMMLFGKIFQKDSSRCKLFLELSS
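Test system: RD-HGA16 (CHO) cells co-expressing Gα16 and hTAAR1 / Benchmarks: DMSO vehicle as 0%, PEA at EC100 as 100% / Repeats: no replicates (n 1) / Measure: % activation from peak over basal fluorescence ratio, DMSO-to-PEA scaled / Timing: 17-24 h plating, Fluo-8 75 min 37 °C, 30 min RT / Technique: kinetic Fluo-8 calcium fluorescence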
CHRM5 antagonist: antagonists of human muscarinic M5 receptor (CHRM5); inhibition, % at 3 µM; hit rate 0.59% among 360,000; CHO-hM5 cells, Fluo-8 calcium fluorescence, ACh EC80;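 active means inhibition above a per-plate cutoff, the mean of that plate's test compounds plus 3 SD, cut at about 27% in these data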;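 further: 0% = acetylcholine EC80 with DMSO and 100% = DMSO without agonist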
CHRM5 PAM: positive allosteric modulators of human muscarinic M5 receptor; P08912; CHO-K1 hM5, Fluo-8 calcium, ACh EC20 PAM; 0% = ACh EC20, 100% = ACh EC100; activation, % at 3 µM; hit rate 0.3% among 360,000; AID 624038;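 active means activation above the run cutoff, the mean activation of all test compounds plus 3 SD, cut at about 18% in these data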
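Assay system: CHO-K1 hM5 cells. Also added: acetylcholine at EC20 concentration, added after compound. Dosing: 3 µM, single dose. Times: compound preincubation 140 s before EC20 acetylcholine addition. Signal: Fluo-8 calcium fluorescence. Measure: % activation relative to EC20 and EC100 ACh responses. Repeats: singlicate, one well per test compound.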
M5 ag: agonists of human muscarinic M5 receptor (CHRM5); P08912; activation, % at 3 µM; hit rate 0.19% among 360,000; AID 624037; CHO-K1 hM5 cells, Fluo-8 calcium fluorescence; 0% DMSO wells, 100% maximal acetylcholine response;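 active means activation above the run's mean over test compounds plus 3 SD, cut at about 23% in these data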;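 further: signal is peak over basal fluorescence ratio across the kinetic read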
* marks the source's active call; other numbers are inactive results; & = joins results of further samples.

| TAAR1 ag | CHRM5 antagonist | CHRM5 PAM | smiles | M5 ag |
| --- | --- | --- | --- | --- |
| 8&1 | 4&-3 | 3&6 | COc1ccc2c3c1OC1CC(O)C=CC31CCN(C)C2 (stereo not given) | 1&-1 |
| 1 | -5 | 7 | CC(=O)Oc1ccc(C(c2ccc(OC(C)=O)cc2)c2ccccn2)cc1 | 1 |
| 4&1 | -2&-9 | -1&-3 | NCc1ccc(S(N)(=O)=O)cc1 | 0&0 |
| 0 | -4 | 1 | CNCC(=O)O | 1 |
| 1 | -4 | 3 | CC(=O)OCC(=O)C1(O)CCC2C3CCC4=CC(=O)C=CC4(C)C3C(O)CC21C (stereo not given) | 4 |
| 1 | -10 | 18 | O=C1NCCN1c1ncc([N+](=O)[O-])s1 | 0 |
| 3 | 0 | 0 | CC(CCC(=O)O)C1CCC2C3CCC4CC(O)CCC4(C)C3CC(O)C12C (stereo not given) | 1 |
| 1 | -3 | -1 | Cn1c(=O)c2[nH]cnc2n(C)c1=O | 16 |
| 3 | 14 | -18 | CN(C)CCCOc1nn(Cc2ccccc2)c2ccccc12 | -1 |
| 2 | 4 | -6 | COc1ccc(CCN(C)CCCC(C#N)(c2ccc(OC)c(OC)c2)C(C)C)cc1OC (stereo not given) | -1 |
| 1 | -6 | -1 | O=C1CC[C@@H](C(=O)O)N1 | 0 |
| 1 | -2 | -7 | CCCCCCCCCCCCCCCC(=O)NCCO | 1 |
| 1 | 7 | -5 | c1coc(CNc2ncnc3nc[nH]c23)c1 | 1 |

Among those listed so far, five contain nitrogen in an aromatic ring:
| TAAR1 ag | CHRM5 antagonist | CHRM5 PAM | smiles | M5 ag |
| --- | --- | --- | --- | --- |
| 1 | -5 | 7 | CC(=O)Oc1ccc(C(c2ccc(OC(C)=O)cc2)c2ccccn2)cc1 | 1 |
| 1 | -10 | 18 | O=C1NCCN1c1ncc([N+](=O)[O-])s1 | 0 |
| 1 | -3 | -1 | Cn1c(=O)c2[nH]cnc2n(C)c1=O | 16 |
| 3 | 14 | -18 | CN(C)CCCOc1nn(Cc2ccccc2)c2ccccc12 | -1 |
| 1 | 7 | -5 | c1coc(CNc2ncnc3nc[nH]c23)c1 | 1 |

Compound profiles (already shown). Screens in order: TAAR1 ag | CHRM5 antagonist | CHRM5 PAM | M5 ag
Listed for `CC(=O)Oc1ccc(C(c2ccc(OC(C)=O)cc2)c2ccccn2)cc1` → 1 | -5 | 7 | 1
Listed for `CNCC(=O)O` → 0 | -4 | 1 | 1
Listed for `c1coc(CNc2ncnc3nc[nH]c23)c1` → 1 | 7 | -5 | 1
Listed for `O=C1CC[C@@H](C(=O)O)N1` → 1 | -6 | -1 | 0
Listed for `NCc1ccc(S(N)(=O)=O)cc1` → 4&1 | -2&-9 | -1&-3 | 0&0

A portion of the library; count on the stated rates, not on these rows.
